Rce1 inhib: yeast Ras-converting enzyme inhibition; AID 2563; calls only; yeast membranes, quenched prenylated peptide cleavage fluorescence; 290,000 compounds, 0.27% hits; Q03530;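 active means fall in fluorescence gain of 50% or more versus controls, with final raw signal at or below 3038400; inconclusive means same 50% fall but final raw signal above 3038400; inactive means fall in fluorescence gain under 50%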;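 further: plate controls were neutral control wells for no effect and wells lacking membranes for full effect; tested at 10 µM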
Target sequence (Q03530 whole entry, looked up): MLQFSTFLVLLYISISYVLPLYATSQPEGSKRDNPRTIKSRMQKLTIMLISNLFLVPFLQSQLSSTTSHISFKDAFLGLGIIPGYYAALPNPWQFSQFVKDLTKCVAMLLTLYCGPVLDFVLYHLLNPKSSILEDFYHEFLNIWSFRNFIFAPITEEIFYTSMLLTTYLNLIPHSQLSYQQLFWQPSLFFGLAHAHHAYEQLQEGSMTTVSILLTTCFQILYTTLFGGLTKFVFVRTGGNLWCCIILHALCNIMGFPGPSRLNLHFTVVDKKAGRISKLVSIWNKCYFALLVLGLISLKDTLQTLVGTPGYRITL
PABP FP inh: PABP-poly(A) binding inhibition; AID 2014; P11940; inhibition, % at 35 µM; 290,000 compounds, 1% hits; PABP-poly(A) RNA binding, fluorescence polarization;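 active means 50% or more with normal probe brightness, or confirmed in later tests; inconclusive means above 50% with abnormal brightness, or retests that disagree; inactive means below 50% or failed in later tests; about a fifth of its hits are not listed in these tables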;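 further: calls also rest on retests at 20 µM and on dose response follow-up; controls were probe without protein and protein plus probe with vehicle; some compounds called inactive have numbers as strong as hits; many hits fall short of the cut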
CSC inhib: cancer stem cell inhibition; AID 2717; 300,000 compounds, 1.1% hits; cancer stem cell-like cells viability, luminescence; inhibition, % at 7.5 µM;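 active means mean at 75% or more and at least half the replicates too; inconclusive means mean and replicates disagree; tested in HMLE shEcad cells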;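 further: 0% = median of negative and 100% = median of positive control wells; the first replicate is given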
eIF4H FP inh: inhibitors of RNA binding by human eIF4H; eIF4H fluorescence polarization binding assay; Q15056; AID 2012; inhibition, % at 35 µM; 290,000 compounds, 0.94% hits;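 active means 50% or more with normal probe brightness, or confirmed in later tests; inconclusive means above 50% with abnormal brightness, or retests that disagree; inactive means below 50% or failed in later tests; about a fifth of its hits are not listed in these tables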;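 further: calls also rest on retests at 20 µM and on dose response follow-up; 0% = protein and probe with vehicle and 100% = probe without protein; strong numbers were not always called active; many hits fall short of the cut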
MT1-MMP act inh: inhibitors of human MT1-MMP activation. P50281. HT1080 RFP-PRO-GFP cells, GFP/RFP ratio fluorescence, overnight; percent of plate control window, DMSO zero. GFP/RFP ratio change, % at 20 µM. 360,000 compounds, 0.061% hits. AID 651647;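 active means GFP/RFP ratio change of at least 30% with cell ATP level not reduced by more than half and red fluorescence within 50% of control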; further: strong numbers were not always called active
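Test system: HT1080 cells expressing an RFP-PRO-GFP fluorescent reporter construct / Compound dosing: single-point 20 µM compound, 1% DMSO / Schedule: cells overnight before dosing, compound overnight, 37 °C, 5% CO2 / Evaluation: GFP/RFP fluorescence ratio / Control set: DMSO and RFP-L50D-GFP cell wells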
Yeast UUG start: alters start codon recognition fidelity in yeast | S. cerevisiae UUG-firefly luciferase reporter, luminescence/redox ratio | activity score, % at 18.7 µM | 350,000 compounds, 0.13% hits | AID 602363;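 active means replicate mean at a twofold rise or more, about +100% in these data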;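 further: firefly luciferase made from a UUG start codon reports start codon fidelity; reporter light over untreated wells divided by growth signal over untreated wells; some hits fall short of that in this replicate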
Env fusion inh: HIV envelope-mediated fusion inhibition; inhibition, % at 12.3 µM; AID 651610; HeLa-JRFL Env/CEM21 cell fusion, luciferase; 360,000 compounds, 1.1% hits;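 active means mean replicate inhibition score of at least 50 and every replicate individually at or above 50; inconclusive means only one of the two criteria met; inactive means mean below 50 and not all replicates reaching 50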;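 further: 0% = plate neutral controls and 100% = maraviroc near 300 nM; one replicate is shown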
MT1-MMP act inh RFP: recorded beside MT1-MMP act inh, whose call it bears; RFP signal change, %; measured here: RFP expression control read;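 0 = vehicle wells; hits needed this value within 50% of zero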
An asterisk follows results filed as active; i = inactive; u = inconclusive; x = no result given; & = joins results of further samples; [ ] = another dose, or the depositor's remark. This is a random part of the collection, and some 3% of all compounds hit somewhere here.

Molecule	Rce1 inhib	PABP FP inh	CSC inhib	eIF4H FP inh	MT1-MMP act inh	MT1-MMP act inh RFP	Yeast UUG start	Env fusion inh
Nc1n[nH]c(C(F)(F)F)c1-c1ccccc1	i	8	-7	0	-1	-2	-7	-1
CCOC(=O)c1cnc2c(C)cc(Cl)cc2c1NCCCN1CCOCC1	i	4	9	-10	-3	-2	-11	-1
CCNC(=O)NCc1c(C)c(C)n(Cc2ccccc2)c1-n1cccc1	i	-5	-3	6	0	1	12	8
C[C@@H]1CC=C[C@H]2[C@H]1C(=O)N(Cc1ccccc1)[C@H]2c1ccc(C(F)(F)F)cc1	i	-2	15	-4	-5	-6	-5	-6
Cc1nnc(N/N=C/c2ccc(Br)cc2)n1N	i	10	-8	-4	0	1	-10	11
O=C(Nc1nsc(-c2ccccc2)n1)c1cccs1	i	2	6	-7	1	3	x	x
COc1ccc(-c2noc(-c3cccnc3)n2)cc1OC	i	3	8	0	-3	-2	x	-34
COc1cccc(CNC(=O)C2CCN(S(=O)(=O)c3ccc4c(c3)CC(C)N4C(C)=O)CC2)c1 (configuration not stated)	i	6	-16	-14	2	-6	5	-4
C[C@@H]1CN([C@H](C)CO)C(=O)c2c(c3ccccc3n2C)-c2ccccc2CO[C@@H]1CN(C)C(=O)Nc1ccccc1C(F)(F)F	x	x	x	x	2	5	-14	-1
CCOc1ccc(S(=O)(=O)N2CCN(C(=O)c3sccc3C)CC2)cc1	i	-7	3	0	-5	-6	-6	x
COc1ccc(NC(=O)/C(C#N)=C/c2ccc(-c3ccccc3C(=O)O)o2)cc1	i	15	-7	6	3	-1	-16	-2
COc1ccccc1N1CCN(C(c2ccc(F)cc2)c2nnnn2C(C)C)CC1 (configuration not stated)	i	-3	x	0	1	2	-4	x
CC(=O)Nc1ccc(S(=O)(=O)N(Cc2ccco2)Cc2cc3ccccc3[nH]c2=O)cc1	i	12	14	-3	1	1	-12	17
CCCCN1C(=O)C(CC(=O)NCC)SC1=Nc1ccccc1 (configuration not stated)	i	-4	-13	17	7	4	-4	-20
CC1=NN(c2ccc(C)cc2C)C(=O)C1C(c1ccccc1)C1C(=O)N(c2ccc(C)cc2C)N=C1C (configuration not stated)	i	-1	-6	4	9	1	-10	x
COC(=O)[C@]1(C)CCC[C@@]2(C)C3CC[C@]4(OC(C)=O)C[C@@]3(CCC21)CC4=O (some centres not stated)	x	x	4	x	2	-3	6	0
C=C(C)n1c(=O)n(Cc2ccccc2C)c2ccccc21	i	9	-14	-15	1	-1	15	12
CN(C)C(=O)Cn1c(SCC(=O)NCc2ccc3c(c2)OCO3)nc2ccccc21	i	-3	-16	-2	-1	0	24	x
O=C(CN1CCN(c2ccccn2)CC1)NC1CCCC1	i	3	x	3	1	1	1	-59
CCOc1ccc(C(=O)Nc2c3c(nn2-c2ccccc2)CS(=O)(=O)C3)cc1	i	-3	x	-1	2	0	-17	2

Ordered by number of heavy atoms (largest number first): 4 of the compounds above.
Molecule	Rce1 inhib	PABP FP inh	CSC inhib	eIF4H FP inh	MT1-MMP act inh	MT1-MMP act inh RFP	Yeast UUG start	Env fusion inh
CC1=NN(c2ccc(C)cc2C)C(=O)C1C(c1ccccc1)C1C(=O)N(c2ccc(C)cc2C)N=C1C (configuration not stated)	i	-1	-6	4	9	1	-10	x
CC(=O)Nc1ccc(S(=O)(=O)N(Cc2ccco2)Cc2cc3ccccc3[nH]c2=O)cc1	i	12	14	-3	1	1	-12	17
C[C@@H]1CC=C[C@H]2[C@H]1C(=O)N(Cc1ccccc1)[C@H]2c1ccc(C(F)(F)F)cc1	i	-2	15	-4	-5	-6	-5	-6
COc1ccc(-c2noc(-c3cccnc3)n2)cc1OC	i	3	8	0	-3	-2	x	-34

Back to the main list; the 4 compounds before the break are reprinted first.
Molecule	Rce1 inhib	PABP FP inh	CSC inhib	eIF4H FP inh	MT1-MMP act inh	MT1-MMP act inh RFP	Yeast UUG start	Env fusion inh
C=C(C)n1c(=O)n(Cc2ccccc2C)c2ccccc21	i	9	-14	-15	1	-1	15	12
CN(C)C(=O)Cn1c(SCC(=O)NCc2ccc3c(c2)OCO3)nc2ccccc21	i	-3	-16	-2	-1	0	24	x
O=C(CN1CCN(c2ccccn2)CC1)NC1CCCC1	i	3	x	3	1	1	1	-59
CCOc1ccc(C(=O)Nc2c3c(nn2-c2ccccc2)CS(=O)(=O)C3)cc1	i	-3	x	-1	2	0	-17	2
COC(=O)c1ccc(C(=O)OC)c(NC(=S)N2CCN(c3ccccc3)CC2)c1	i	9	-4	-1	x	x	x	x
CCOc1cc(-c2nnc(NC(=O)C3=COCCO3)o2)cc(OCC)c1OCC	i	x	-4	x	1	0	-16	-49
O=C1CC(N(C(=O)c2ccco2)c2cccc(Cl)c2)C(=O)N1c1cccc(Cl)c1 (configuration not stated)	i	-4	-5	4	5	3	-15	-10
CC(=O)Oc1ccc(NC(=O)Cc2ccccc2)cc1	i	1	-4	1	2	0	-19	-44
CCCNNC(=O)C(O)(c1cccc(C)c1)c1cccc(C)c1	i	-10	-8	-6	8	4	x	x
CC1(C)CC(NC(=S)NC2CC2)CC(C)(C)N1	i	4	4	-7	-5	-5	x	-5
COc1ccc2c(CC(=O)Nc3ccc(OC)nc3)coc2c1	i	4	2	5	5	-4	-7	-5
O=C(NCCCN1CCOCC1)c1ccc(S(=O)(=O)Nc2ccccc2)cc1	i	x	30	x	5	0	-16	x
O=C(OCc1nnc(-c2ccccc2)o1)c1ccc([N+](=O)[O-])s1	x	x	4	x	6	5	-1	-4
O=C(c1cccc(F)c1)N1CCC2(CC1)NCCc1[nH]cnc12	i	x	-15	x	-5	3	-16	4
CCc1ccccc1OCc1nc2ccc(S(=O)(=O)N3CCOCC3)cc2[nH]1	i	4	0	-14	2	-3	-4	-5
CSCCC(NS(=O)(=O)c1ccc(Cl)cc1)C(=O)O (configuration not stated)	i	10	24	-14	2	6	-3	-6
Cc1ccc(NC(=O)CSCC(=O)O)cc1	i	15	-7	-4	2	2	x	6
Cc1ccccc1-c1nc(CS(=O)(=O)CC(=O)NCc2ccc3c(c2)OCO3)c(C)o1	i	-19	14	-12	-1	3	11	-51
COc1ccccc1CNC(=O)N1CCN(S(=O)(=O)c2ccccc2)CC1	i	4	-8	-2	-1	3	-15	2
CCc1ccc(OCC(=O)N/N=C/c2cc([N+](=O)[O-])ccc2N2CCCCCC2)cc1	i	5	24	0	11	-5	2	23
CC(C)c1ccc([N+](=O)[O-])cc1S(=O)(=O)N1CCN(C)CC1	i	-12	-17	-8	2	1	3	5
CCc1cccc(NC(=O)C2CCCN(S(=O)(=O)c3cnc[nH]3)C2)c1 (configuration not stated)	i	0	4	-4	1	4	-8	-5
COc1ccccc1NC(=O)CCC(=O)Nc1nnc(C2CCCCC2)s1	i	19	-15	-1	1	1	-5	1
Cc1ccc2[nH]c3c(c2c1)CCNC3=O	i	13	-10	5	0	0	1	50
Cc1cc2sc3ccccc3c(=O)c2c(C)c1O	i	3	-16	9	-1	7	x	-11
O=C(CSc1nnc2scc(-c3ccccc3)n12)Nc1nsc(-c2ccccc2)n1	i	-13	-16	-4	-7	-11	-4	x
COc1ccc(CC(=O)N/N=C(\C)CC(=O)Nc2ccc3c(c2)OCCO3)cc1OC	i	10	-16	-6	0	1	-6	13
COc1cc(NC(=O)CSc2nc(C3CC3)nc3ccccc23)cc(OC)c1	i	7	-11	-5	-2	-3	-12	-8
COc1ccc(CNC(=O)C2CCN(S(=O)(=O)N3CCCC3)CC2)c(OC)c1	i	-8	8	-8	-3	-1	-4	-3
CCN(CC(O)CON=C1c2ccccc2-c2ccccc21)S(=O)(=O)c1ccc(Cl)cc1 (configuration not stated)	i	-2	40	-10	-5	-17	x	77*
CN(Cc1ccco1)C(=O)Cn1cc(S(=O)(=O)N2CCCC2)c(S(=O)(=O)N2CCCC2)c1	i	17	-40	2	-1	1	-22	7
Cc1ncc(CO)c(/C=N/NC(=S)Nc2cccc(Cl)c2)c1O	i	24	15	32	-7	4	x	x
CCCCN(C)c1c(C)nc2ccc(C(=O)N(CC)CCN(C)C)cn12	x	x	x	x	-2	-4	-12	63*
O=C1CCC([N+](=O)[O-])C(c2cccc([N+](=O)[O-])c2)N1 (configuration not stated)	i	2	-9	1	-2	6	x	19
CCc1cc2c(=O)n(CC(C)C)cnc2s1	i	18	8	6	-2	-3	-15	x
CCN1C(=O)CC(n2c(C)nc3ccccc32)C1=O (configuration not stated)	i	-3	1	-5	1	4	-8	x
COc1ccc(C(C[N+](=O)[O-])c2c(-c3ccccc3)cc3ccccn23)cc1 (configuration not stated)	i	5	u	-16	-9	-5	-20	-194
C[C@@H]1CN([C@@H](C)CO)C(=O)c2cc(N(C)C)ccc2O[C@@H]1CN(C)S(C)(=O)=O	x	x	x	x	-1	5	2&-10	-16[16.7 µM]
CN=C1NC(C)(C)C2CCC(C)(CC2)S1	x	x	x	x	-1	3	-7	2
COC(=O)c1cnc(SCc2ccc(C)cc2)n1C	i	3	-5	2	1	1	-11	-16
COc1ccc(NC(=O)C2(C)CCN2C(=O)C(C)C)cc1F (configuration not stated)	x	x	x	x	5	5	-12	6
CCCC(=O)n1nc(-c2ccc(C)cc2)nc1NCc1ccco1	i	-2	3	-1	-2	-3	-6	-8
Cc1cccc(C(=O)n2c(=S)nc3cc(C)ccn32)c1	i	-8	5	41	2	-3	x	-136
C=CCNCCOc1ccc(C)cc1[N+](=O)[O-]	i	4	-7	20	6	5	x	8
COc1ccccc1N1CCN(CC(O)COc2cccc3ccccc23)CC1 (configuration not stated)	i	-4&-8	7&14	-3&-3	1&5	-1&6	-18&-10	8&-5
CCn1cc([N+](=O)[O-])c(C(=O)N2N=C(c3ccc(Cl)c(Cl)c3)CC2c2ccccc2O)n1 (configuration not stated)	i	-6	-2	1	0	-7	x	5
CCc1nc(SCC(=O)c2cc(C)ccc2C)n[nH]1	i	3	-4	-8	7	-1	0	-86
CN(c1ccc(F)cc1)S(=O)(=O)c1ccc2[nH]cc(C(=O)O)c(=O)c2c1	x	-3	x	-5	3	7	10	x
N#Cc1nc(COc2ccccc2F)oc1NCCCn1ccnc1	i	5	3	-1	2	-3	-20	13
Cc1[nH]c(=O)[nH]c(=O)c1CSc1nnc([C@H](CC(C)C)NC(=O)OC(C)(C)C)o1	i	0	-2	-6	2	0	-9	x
CCC(=O)N1CCc2cc(S(=O)(=O)N3CCc4ccccc4C3)ccc21	i	1	9	-5	-2	-6	-14	-49
CCc1ccc(C(=O)CSc2nnc(C3CC3)n2C2CC2)cc1	x	x	-4	x	-2	1	-24	x
OC(CNCc1ccccc1)COc1ccccc1 (configuration not stated)	i	x	5	x	8	3	-17	-21
COc1ccc(CCC(=O)N(c2nnc(-c3cccnc3)s2)C(C)C)cc1	i	2	-7	-2	-4	-2	x	15
CCOC(=O)C1(CCCc2ccccc2)CCN(C(=O)CCn2cncn2)CC1	i	-2	-5	0	3	0	x	31

From PubChem
